AmpC nodet inh: AmpC beta-lactamase inhibition, detergent-free assay; P00811; AmpC nitrocefin hydrolysis, absorbance 480 nm, no detergent; potencies from a single point are estimates; Potency, µM (titrated, usually from 28.7 µM), for the others: at the top dose activity change, negative = inhibition; 71,000 tested, 1.8% active; active = falling curve, for most hits resting on a single point; inconclusive = weak or doubtful change; inactive = flat or rising curve; further: % of control where 0% means no effect; about half of the hits show no inhibition at the top dose; a quarter of the inactives give rising signals
Target sequence (P00811 whole entry, looked up): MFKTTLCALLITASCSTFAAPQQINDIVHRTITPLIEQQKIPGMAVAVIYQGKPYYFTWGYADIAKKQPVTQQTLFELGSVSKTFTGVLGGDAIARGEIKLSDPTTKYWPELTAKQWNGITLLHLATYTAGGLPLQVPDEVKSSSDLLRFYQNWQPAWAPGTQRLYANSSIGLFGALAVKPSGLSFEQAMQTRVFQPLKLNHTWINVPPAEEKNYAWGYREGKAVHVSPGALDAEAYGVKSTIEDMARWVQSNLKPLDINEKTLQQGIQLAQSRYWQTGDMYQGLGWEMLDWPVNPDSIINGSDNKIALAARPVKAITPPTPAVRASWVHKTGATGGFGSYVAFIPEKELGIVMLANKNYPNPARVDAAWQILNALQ
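Enzyme, pH 7.0 phosphate. Compound titrations were pre-incubated with AmpC for 15 min at room temperature before nitrocefin (stock 800 uM) addition; product formation was recorded at 480 nm every 20 s for 4 min.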
Starred values were filed as active, the others as inactive; [ ] = remark or other dose. Potency means the concentration at half of the fitted maximal effect. A portion of the library; count on the stated rates, not on these rows.

NCCC[C@@H](CC(=O)N[C@@H]1CCCC[C@H]1C(=O)N[C@H](CC(=O)N[C@@H](CCC(=O)O)CC(=O)O)Cc1ccccc1)NC(=O)C[C@H](CO)NC(=O)[C@@H]1CCCC[C@H]1N was read as AmpC nodet inh 151.6%.
Screening CCC(C)C1C(C#N)=C(N)Oc2n[nH]c(-c3ccccc3)c21 (centres undefined) returned AmpC nodet inh -14.1%.
For COc1ccc2[nH]c(=O)c(CN(Cc3ccco3)C(=O)c3ccccc3)cc2c1 the results were AmpC nodet inh 14.7%.
O=C(C1CCC1)N1CCc2cc(S(=O)(=O)N3CCN(c4ccccn4)CC3)ccc21 was read as AmpC nodet inh 69.1%.
`N#Cc1c2c(c(NCCN3CCOCC3)n3c1nc1ccccc13)CCCC2` gave AmpC nodet inh 81.7%.
CC(C)NC(=O)N1CC2(CCN(S(=O)(=O)c3ccccc3)CC2)C1 was read as AmpC nodet inh 19.0%.
`CCOc1ccc(OCC)c(NC(=O)C2CCCN(S(=O)(=O)c3c(C)noc3C)C2)c1` (centres undefined) gave AmpC nodet inh 37.1%.
Screening CCn1nc(C)c(Oc2ccccc2O)c1C returned AmpC nodet inh 4.0%.
`CS(=O)(=O)N1CCN(C(=O)NC23CC4CC(CC(C4)C2)C3)CC1` gave AmpC nodet inh -4.0%.
Screening CCCN(Cc1cc2cccc(C)c2[nH]c1=O)C(=O)c1cccc(OC)c1 returned AmpC nodet inh 38.8%.
For CN(C)Cc1ccccc1-c1ccc2ncnc(N(C)C)c2c1 the results were AmpC nodet inh 6.5%.
COc1ccccc1N1CCN(c2cc(=O)n(Cc3ccc(F)cc3)c(=O)[nH]2)CC1 was read as AmpC nodet inh 20.5%.
For CC(=O)NC12CC3CC(C1)CC(C(=O)OCC(=O)c1ccc4c(c1)OCCO4)(C3)C2 the results were AmpC nodet inh 92.4%.
CC(C)c1nnc(SCC(=O)NCc2ccco2)n1C was read as AmpC nodet inh 19.2%.
Screening N=c1c(S(=O)(=O)c2ccccc2)cc2c(=O)n3ccccc3nc2n1Cc1ccco1 returned AmpC nodet inh 52.9%.
For CN(CCC(=O)O)C1=Nc2ccc(Cl)cc2C(c2ccccc2)=[N+]([O-])C1 the results were AmpC nodet inh -8.7%[5.75 µM].
Screening CCOC(=O)Cc1csc(NC(=O)CCS(=O)(=O)Cc2ccccc2)n1 returned AmpC nodet inh 7.0%.
`O=C(NCCOC(=O)c1ccc(S(=O)(=O)N2CCOCC2)cc1)c1cccnc1` gave AmpC nodet inh 7.3%.
Screening NC[C@H](O)c1cc(O)c(O)cc1F returned AmpC nodet inh -3.2%.
`O=C(CCn1c(=O)sc2ccccc21)NCc1cccs1` gave AmpC nodet inh -3.2%.
`O=C(Cc1coc2cc3c(cc12)CCC3)OCc1cc(=O)n2c(n1)sc1ccccc12` gave AmpC nodet inh 10µM*.
Screening COc1ccc(-c2cc(-n3c(C(F)(F)F)nc4ccccc43)n(CCC#N)n2)cc1 returned AmpC nodet inh 85.2%.
CCc1c(C)nc(SC)n(CC#N)c1=O was read as AmpC nodet inh 11.8%.
For CCCc1cc(=O)[nH]c(SCc2ccc(C#N)cc2)n1 the results were AmpC nodet inh -16.6%.
CN(C)C(=O)c1ccc(-c2cncnc2NC2CCNCC2)cc1 was read as AmpC nodet inh 0.8%.
COCCn1c(SCC(=O)N2CCCc3ccccc32)nnc1-c1ccco1 was read as AmpC nodet inh 18.6%.
CCCN1CC23C=CC(O2)C(C(=O)O)C3C1=O (centres undefined) was read as AmpC nodet inh 4.0%.
`CCCCn1c(CN2CCN(c3ccccc3)CC2)nc2c1c(=O)n(C)c(=O)n2C` gave AmpC nodet inh -9.7%.
For CCn1c(SCC(=O)Nc2ccc3c(c2)c2ccccc2n3CC)nnc1-c1cnccn1 the results were AmpC nodet inh 110.5%.
N[C@@H](CCCCO)C(=O)O was read as AmpC nodet inh 2.4%[5.75 µM].
Cc1ccc(N(C(=O)C2CCCO2)C2C=CS(=O)(=O)C2)cc1Cl (centres undefined) was read as AmpC nodet inh 0.5%.
`CCOC(=O)c1cncn1C(C)c1ccccc1` (centres undefined) gave AmpC nodet inh 18.9%.
COCCN1C(=O)N(c2cccc(C)c2)C(=O)C1CC(=O)Nc1ccc(F)cc1 (centres undefined) was read as AmpC nodet inh 21.8%.
For Oc1ccccc1C(Sc1nc2ccccc2s1)Sc1nc2ccccc2s1 the results were AmpC nodet inh -12.7%[5.75 µM].
`CCOC(=O)C1=C(N)OC(C)=C(C(=O)OCCOC)C12C(=O)Nc1ccccc12` (centres undefined) gave AmpC nodet inh 22.2%.
For Nc1c(C(=O)NCc2ccco2)sc2nc3c(cc12)C(=O)CCC3 the results were AmpC nodet inh 18.4%.
For COc1ccccc1CCn1c(=O)c(CCc2ccccc2)nc2cncnc21 the results were AmpC nodet inh 42.0%.
CCn1c(=O)c2c(n3cnnc13)-c1ccccc1CC21CCCCC1 was read as AmpC nodet inh 4.1%.
Screening CCOc1ccccc1C(=O)Nc1ccc2nc(N3CCN(c4ncccn4)CC3)cc(C)c2c1 returned AmpC nodet inh 91.6%.
For CCn1c(SCC(=O)c2ccc(Cl)cc2)nnc1C(C)C the results were AmpC nodet inh 26.2%.
For O=C(Nc1cc(C(F)(F)F)ccc1N1CCOCC1)c1ccc2ccccc2n1 the results were AmpC nodet inh 13.9%.
CCOCCCNCC(=O)NC1(C)C2CCC(C2)C1(C)C (centres undefined) was read as AmpC nodet inh 17.1%.
For CC(C)(C)c1ccc(O)c(CN(Cc2cc(C(C)(C)C)ccc2O)c2ccccc2)c1 the results were AmpC nodet inh 1.7%[5.75 µM].
For c1cncc([C@H]2CCCCN2)c1 the results were AmpC nodet inh 28.7%.
Cc1nc2ccc3nc(NC(=O)C4COc5ccccc5O4)sc3c2s1 (centres undefined) was read as AmpC nodet inh 93.4%.
Screening CC(=O)N1CCC2(CCN(Cc3ccc(C#N)cc3)CC2)CC1 returned AmpC nodet inh 23.4%.
Screening CCCCc1cc(=O)oc2cc(OCC(=O)N(CC)CC)c(Cl)cc12 returned AmpC nodet inh 22.2%.
Screening CCOc1ccc(OCC)c(NC(=O)CNS(=O)(=O)c2cccs2)c1 returned AmpC nodet inh -14.0%.
For CCc1cc(=O)oc2cc(OCC(=O)N3CCc4ccccc43)ccc12 the results were AmpC nodet inh 0.6%.
Cc1c2c(nc3c(C(=O)NC4CC4)cnn13)CCCC2 was read as AmpC nodet inh 16.9%.
`O=C(Cn1cc(C(=O)c2ccccc2F)c2ccccc21)NCc1ccco1` gave AmpC nodet inh -12.5%.
Screening CCOC(=O)C1CCN(C(=O)CSCCSCC(=O)N2CCC(C(=O)OCC)CC2)CC1 returned AmpC nodet inh 80.3%.
Screening Cc1ccc(S(=O)(=O)Nc2cccc(-c3cn4ccsc4n3)c2)cc1 returned AmpC nodet inh 6.31µM*.
For Cc1cc(OCCN2CCCC2)ccc1C(C)C the results were AmpC nodet inh 0.8%.
Screening COC(=O)[C@@]1(Cc2ccc(F)cc2)[C@H]2c3cc(C(=O)N(C)C)n(Cc4c(CO)[nH]cc(C)c4=O)c3C[C@H]2CN1C(=O)c1ccccc1 returned AmpC nodet inh 162.8%.
For COc1cc2nc(N3CCN(C(=O)c4ccco4)CC3)nc(N)c2cc1OC the results were AmpC nodet inh 14.8%.
O=C(NC1CCCC1)C1c2ccccc2C(=O)N1CCCN1CCOCC1 (centres undefined) was read as AmpC nodet inh -5.8%.
Screening Cc1cc(=O)n2nc(-c3ccccc3)sc2n1 returned AmpC nodet inh -7.0%.
`Cc1ccc(-c2nc(=S)c3c(n2CCN2CCOCC2)CC(C)(C)OC3)cc1` gave AmpC nodet inh 2.5%.
`COc1ccc(NCc2nnc(SCC(=O)Nc3cccc(C)c3)o2)cc1` gave AmpC nodet inh 5.8%.
Screening c1ccc2c(CCNC3=NCCC3)c[nH]c2c1 returned AmpC nodet inh -7.2%.
`O=C(C1=C(O)C(=O)N(CCN2CCOCC2)C1c1ccccc1)c1cccs1` (centres undefined) gave AmpC nodet inh -6.0%.
Fc1cccc(C2CC(c3cccc(Br)c3)Nc3nnnn32)c1 (centres undefined) was read as AmpC nodet inh 23.2%.
CCOC(=O)NC1(C(F)(F)F)N=C(c2ccccc2)NC1=O (centres undefined) was read as AmpC nodet inh 1.7%.
For CC(C)CCNC(=O)CN(Cc1ccc2c(c1)OCO2)C(=O)CCC(=O)Nc1ccccn1 the results were AmpC nodet inh 80.9%.
Cc1ccccc1NC(=O)Cn1c(=O)n(C)c2ccccc21 was read as AmpC nodet inh 11.4%.
For NNC(=O)CNc1cccc(Br)c1 the results were AmpC nodet inh -5.7%[5.75 µM].
For CC1CN(C(=O)Cc2ccc(-c3ccccc3)cc2)CC(C)O1 (centres undefined) the results were AmpC nodet inh 81.5%.
COc1ccc(CCNC(=O)CN2CCCc3ccccc32)cc1OC was read as AmpC nodet inh 53.8%.
For Cc1ccccc1Cn1nc(C)c(NC(=O)c2noc3c2CC(C(C)(C)C)CC3)c1C (centres undefined) the results were AmpC nodet inh 90.1%.
Screening CCn1c(Cc2ccc(OC)cc2)nnc1SCC(=O)Nc1nc2ccccc2s1 returned AmpC nodet inh 25.8%.
C[C@@H]1O[C@@H](O)[C@@H](O)[C@H](O)[C@H]1O was read as AmpC nodet inh 1.8%[5.75 µM].
Screening COc1cccc(-c2cc(C(=O)Nc3c(C)nn(Cc4ccccc4)c3C)no2)c1 returned AmpC nodet inh 74.9%.
For CCOC(=O)c1cc(-c2ccc(C)cc2)n(CC(=O)NCc2ccco2)c1C the results were AmpC nodet inh 10.7%.
For CCn1c(=O)c(=O)[nH]c2cc(C(=O)Nc3ccc(S(=O)(=O)N4CCCC4)cc3)ccc21 the results were AmpC nodet inh -11.1%.
c1cncc(C2Nc3ccccc3-c3nc4ccccc4n32)c1 (centres undefined) was read as AmpC nodet inh -12.8%.
`COC(=O)[C@@H]1C[C@H]1[C@@H](NS(=O)(=O)c1ccccc1)c1ccccc1` gave AmpC nodet inh 11.9%.
`Cc1ccccc1CN1CCN(CC(=O)NCc2ccc3c(c2)OCO3)C1=O` gave AmpC nodet inh 16.0%.
Screening O=S(=O)(c1ccc2nc(COc3ccccc3)[nH]c2c1)N1CCOCC1 returned AmpC nodet inh -16.6%.
`O=C(Cn1ncc2c3ccccc3n(Cc3cccc(Cl)c3)c2c1=O)N1CCC2(CC1)OCCO2` gave AmpC nodet inh 121.3%.
`CCC(C)(C)n1nnnc1C(c1cc2cc3c(cc2[nH]c1=O)OCO3)N1CCN(C)CC1` (centres undefined) gave AmpC nodet inh 9.1%.
For CCOC(=O)CNC(=O)CN1CCCN(S(=O)(=O)c2ccc(Br)s2)CC1 the results were AmpC nodet inh 48.7%.
For O=C(NCc1ccco1)C12CC3CC(C1)CC(C(=O)NCc1ccco1)(C3)C2 the results were AmpC nodet inh 10.3%.
`Cc1ccc(Nc2nc(N)nc(CN3CCN(c4ccccc4)CC3)n2)cc1Cl` gave AmpC nodet inh 107.4%.
Screening CCOC(=O)c1c(C)c(C(=O)Nc2ccccc2)c(C)n1CC returned AmpC nodet inh 13.6%.
For COC(=O)c1c(N)n(Cc2ccc(OC)cc2)c2nc3ccccc3nc12 the results were AmpC nodet inh 113.4%.
Screening O=S(=O)(NCc1ccncc1)c1ccc(S(=O)(=O)NCC2CCCO2)cc1 (centres undefined) returned AmpC nodet inh -5.8%.
O=C(NC1CCCCC1)C(c1ccncc1)N(CC1CCCO1)C(=O)C(F)(F)F (centres undefined) was read as AmpC nodet inh 33.5%.
For O=C1CC(C(=O)N(CC2CCCO2)C(C(=O)NC2CCCCC2)c2ccncc2)CS1 (centres undefined) the results were AmpC nodet inh 27.6%.
Screening Cn1cccc1C(=O)N1CCC2(CCCN(C(=O)Nc3cccc(C#N)c3)C2)CC1 returned AmpC nodet inh 72.8%.
Screening CC(=O)c1ccccc1OCC(O)CN1CCN(C(c2ccccc2)c2ccccc2)CC1 (centres undefined) returned AmpC nodet inh 55.6%.
`Cc1nnc(NC(=O)CN2C(=O)c3ccccc3S2(=O)=O)s1` gave AmpC nodet inh 3.7%.
For CCn1c(SCC(=O)c2ccccc2)nnc1-c1cnccn1 the results were AmpC nodet inh 14.3%.
`CC[C@H](CN(C)C)C(=O)c1ccco1` gave AmpC nodet inh 0.5%[5.75 µM].
`COCCCNC(=O)CN(c1cccc(Cl)c1C)S(C)(=O)=O` gave AmpC nodet inh 10.8%.
CCc1ccccc1N(CC(=O)O)S(C)(=O)=O was read as AmpC nodet inh 4.5%.
COc1ccccc1N1CCN(CC(=O)Nc2cc(C)nn2-c2nc(C)cc(C)n2)CC1 was read as AmpC nodet inh 99.9%.
Cc1nc2c(ccc3nc(NC(=O)c4ccc5c(c4)OCCO5)sc32)s1 was read as AmpC nodet inh 50.9%.
`Brc1ccc(-c2nc(-c3cccnc3)no2)o1` gave AmpC nodet inh -1.0%.

Bioassay records as filed in PubChem.
